High-throughput results (PubChem)
2A StopGo – FMDV 2A StopGo reporter, luciferase signal; human cells with a luciferase reporter of 2A StopGo recoding; control for the full effect not named in the record; Potency, µM (highest dose often 57.9 µM), inactives show at the top dose signal change, negative = less light; 1.2% of 410,000 active; AID 1159524; active = well fitted falling curve with a large enough effect; inconclusive = small, poorly fitted or top-dose-only effect; inactive = no such curve, though single readings can be large or run the other way; tested in HEK293T cells; further: on the % scale 0 is the no-effect control and ±100 the full control effect; nearly all actives have a fitted effect of over 45% in size; luciferase light after 4 h
Cruzain inh Det – cruzain (T. cruzi) inhibition with detergent | P25779 | purified cruzain, Z-FR-AMC fluorescence, 0.01% Triton | Potency, µM, for inactives: max response, negative = inhibition, usual class: inhibitors | 0.43% of 200,000 active | AID 1478;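 further: plate controls were neutral wells for no effect and buffer without enzyme for full effect; nearly all actives have a fitted effect of over 40% in size; top concentration of the series not given in the record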
Target sequence (P25779 123-467 limits assumed): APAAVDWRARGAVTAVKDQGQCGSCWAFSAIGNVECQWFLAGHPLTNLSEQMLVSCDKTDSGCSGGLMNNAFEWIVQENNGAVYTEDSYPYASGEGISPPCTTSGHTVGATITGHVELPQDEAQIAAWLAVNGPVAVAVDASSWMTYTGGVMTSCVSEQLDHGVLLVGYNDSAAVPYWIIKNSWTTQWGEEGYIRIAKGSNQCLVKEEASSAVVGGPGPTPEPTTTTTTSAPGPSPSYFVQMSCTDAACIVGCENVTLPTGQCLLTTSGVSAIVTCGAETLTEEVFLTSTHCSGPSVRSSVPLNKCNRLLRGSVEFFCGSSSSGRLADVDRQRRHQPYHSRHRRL
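Steps: dispense cruzain (1.5 nM final) in acetate buffer pH 5.5 with DTT and 0.01% Triton X-100; pin-transfer compounds; incubate 15 min RT; add Z-FR-AMC (2 uM final); read fluorescence every 30 s, using the 60 s intensity change.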
RE007 growth inh – less growth of the S. pombe RE007 Vpr strain; Potency, µM (doses to about 92.2 µM), for inactives: at the highest dose activity change, negative = less growth; 0.21% of 360,000 active; S. pombe RE007 Vpr strain, BacTiter-Glo ATP luminescence, 24 h; control for the full effect not named in the record; active = well fitted falling curve with a large enough effect; inconclusive = small, poorly fitted or top-dose-only effect; inactive = no such curve, though single readings can be large or run the other way;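 further: on the % scale 0 is the no-effect control and ±100 the full control effect; nearly all actives have a fitted effect of over 50% in size; the assay follows cell death caused by Vpr and the record does not say whether a fall means rescue or toxicity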
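Fission yeast strain RE007, carrying one chromosomally integrated HIV-1 vpr copy, was seeded at OD 0.01 in PMG+AL medium with 23 nL pinned compound. After 24 h at 30 °C and 99% humidity, viability was read by BacTiter-Glo luminescence.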
Lassa entry inh – blocks Lassa virus binding to or entry into cells | 1.2% of 300,000 active | Potency, µM (titrated, usually from 37.9 µM), without a hit: at the highest dose activity change, negative = inhibition, usual class: inhibitors | Lassa virus pseudotype entry inhibition, cell reporter; control for the full effect not named in the record; active means well fitted inhibition curve with a large enough effect; inconclusive means small, poorly fitted or top-dose-only effect, or effect the other way; inactive means flat fitted curve, though single readings scatter; tested in HEK293 cells; further: on the % scale 0 is the no-effect control and ±100 the full control effect; nearly all actives have a fitted effect of over 50% in size; luciferase read-out
NS1 inh – blocks influenza NS1 protein function; Potency, µM (doses to about 46.1 µM), for inactives: top-dose activity, positive = more growth; 0.4% of 270,000 active; S. cerevisiae slowed by influenza A NS1, growth recovery by OD600; active means well fitted rising curve with a large enough effect; inconclusive means small, poorly fitted or top-dose-only effect; inactive means no such curve, though single readings can be large or run the other way; further: nearly all actives have a fitted effect of over 50% in size
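In this qHTS, NS1 from influenza A is expressed in budding yeast, where it slows growth. Cells are switched from glucose to 2% galactose medium (pH 6.0, -URA), treated with compound, and growth recovery is read at OD600.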
SARS PLP yeast – SARS-CoV PLP inhibition in yeast. S. cerevisiae expressing SARS-CoV PLpro, growth rescue; control for the full effect not named in the record. Potency, µM (series often up to 32.9 µM), for the others: at the highest dose activity, positive = growth rescue. 0.19% of 330,000 active. AID 485353; active means well fitted rising curve with a large enough effect; inconclusive means small, poorly fitted or top-dose-only effect; inactive means no such curve, though single readings can be large or run the other way; further: 0% is about no effect; nearly all actives have a fitted effect of over 55% in size; growth read by luminescence after 48 h
MARV entry inh – blocks Marburg virus binding to or entry into cells; 1.8% of 300,000 active; AID 540276; Marburg virus pseudotyped entry inhibition, cell reporter; control for the full effect not named in the record; about a third of the inactives were read at about 46 µM; Potency, µM (top dose mostly 37.8 µM), for inactives: at the highest dose activity change, negative = inhibition, usual class: inhibitors; active = well fitted inhibition curve with a large enough effect; inconclusive = small, poorly fitted or top-dose-only effect, or effect the other way; inactive = flat fitted curve, though single readings scatter; tested in HEK293 cells; about a fifth of its hits are not listed in these tables; further: on the % scale 0 is the no-effect control and ±100 the full control effect; luciferase read-out
Cruzain inh noDet – inhibitors of Trypanosoma cruzi cruzain without detergent; Potency, µM, without a hit: max response, negative = inhibition, actives largely listed as inhibitors; 2.3% of 200,000 active; P25779; purified cruzain, Z-FR-AMC fluorescence, no detergent;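 further: plate controls were enzyme without inhibitor for no effect and buffer without enzyme for full effect; nearly all actives have a fitted effect of over 40% in size; top concentration of the series not given in the record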
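Purified cruzain at 1.5 nM, pre-incubated 15 min with compound at room temperature in 100 mM sodium acetate pH 5.5, 5 mM DTT, 0.00005% Triton X-100. Reaction started with 2 uM Z-FR-AMC; AMC fluorescence increase over 60 s gives rate.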
* marks the source's active call; other numbers are inactive results; ? = inconclusive; · = not tested or not shown; & = joins results of further samples; [ ] = remark or other dose. Unless noted, the call rests on the fitted dose curve; in most records, active means well fitted curve in the direction sought with a large enough effect; inconclusive means small, poorly fitted or top-dose-only effect, or another doubt; inactive means no such curve, though single readings can be large; an effect the other way counts as inactive or inconclusive. Potency means the concentration at half of the fitted maximal effect. Compounds as they come, and some 4.6% of all compounds hit somewhere here.

SMILES,RE007 growth inh,Cruzain inh noDet,Lassa entry inh,Cruzain inh Det,SARS PLP yeast,2A StopGo,MARV entry inh,NS1 inh
O=C(CC1CCCCC1)N1CCCC(c2nc(-c3ccc(S(=O)(=O)N4CCCC4)cc3)no2)C1 (stereo not given),-1%,14%,-24%,-8.9%,-11%,·,-26%,21%
COc1cc(C=NOC(=O)Nc2ccccc2)cc(OC)c1OC,-8%,·,19%[46.1 µM],·,·,32%[activator],13%[46.1 µM],·
CC(C)(C)CN1CCC(Oc2cccc(C(=O)N3CCNC(=O)C3(C)C)c2)CC1,7%,·,?,·,3%,-1%,22%[46.1 µM],9%
CC1(C)NC(=O)N(CCCCOc2ccc(Br)cc2Cl)C1=O,8%,?,?,-5.3%,-12%,?,?,-69%
Cc1[nH]c2ccc(-c3n[nH]c(=S)n3Cc3ccccc3)cc2c1C,-4%,-1%,?,-12%,2%,-16%,?,7%
COc1ccc2[nH]c(C(=O)N/N=C/c3cc(OC)c(OC)c(OC)c3)cc2c1,5%,·,·,·,4%,-3%,·,-3%
CC1(C)Cc2c(sc(NC(=O)C(=O)N3CCCC3)c2C#N)CO1,-14%,·,·,·,-20%,25%,·,7%
COC(=O)c1ccccc1NC(=O)NCc1ccco1,18%,-4%,-19%[14.3 µM],2.3%,9%,33%,17%,-2%
Oc1ccc(Br)cc1/C=N/N1CCN(Cc2cccc3ccccc23)CC1,7%,·,·,·,0%,-1%,·,4%
N/C(=N\OS(=O)(=O)c1ccc2ccccc2c1)c1ccccn1,17%,·,10%,·,2%,13%,-2%[46.1 µM],·
O=C(CSc1nnc(SCc2ccccc2)s1)N/N=C/C=C/c1ccccc1[N+](=O)[O-],-12%,-12%,-4%,-1.4%,11%,-8%,-1%,1%
O=C1C=C(Nc2cccnc2)c2ccccc2C1=O,?,·,?,·,·,?,?,·
COc1cc(NC(=O)CCn2nc(C)c(S(=O)(=O)N3CCCCC3)c2C)cc(OC)c1OC,·,5%,0%[46.1 µM],2.3%,·,-14%,·,·
CC1C(=O)N(Cc2ccc([N+](=O)[O-])cc2)c2ccccc2N1C(=O)C1CC1 (stereo not given),4%,·,4%[46.1 µM],·,1%,-19%,-20%[46.1 µM],·
CNC(C(=O)c1ccccc1)C(OC(C)=O)c1cccc([N+](=O)[O-])c1 (stereo not given),22%,·,14%,·,-1%,-1%,5%,8%
COc1ccc(NC(=O)c2sc3ncn(CC(=O)N4CCN(c5ccccn5)CC4)c(=O)c3c2C)cc1OC,-17%,·,·,·,-4%,-29%,·,-23%
Cc1sc2ncn(CC(=O)NCCCC(=O)Nc3ccc(C(C)C)cc3)c(=O)c2c1C,-9%,·,?,·,0%,-5%,?,2%
CC(=O)N1CCN(C(=O)C(Cc2c[nH]c3ccccc23)NC(=O)c2ccccc2Cl)CC1 (stereo not given),2%,·,-12%,·,7%,9%,19%,-7%
COc1ccc2cc(C#N)c(SCC(=O)N3CC(=O)Nc4ccccc43)nc2c1,1%,·,·,·,1%,-14%,·,6%
CC(C)(C)C(=O)C(Oc1ccc(Cl)cc1)n1cncn1 (stereo not given),1%,1%,-2%,2.1%,·,-29%&-6%,7%,·
Cc1ccc(NC(=O)CCC(=O)NNC(=O)c2ccco2)c(C)c1,-2%,-13%,-9%,7.5%,-2%,4%,0%,-1%
O=C(Cc1ccccc1)Nc1ccc(NC(=O)c2ccco2)cc1,30%,·,0%[46.1 µM],·,0%,22%,?,-27%
CCOC(=O)c1cccc(NC(=O)CSc2nnc(COc3ccccc3C)o2)c1,-12%,-1%,-22%,-0.8%,-2%,·,-2%,-1%
Cn1c(=O)oc2cc(S(=O)(=O)N3CCN(c4ccccn4)CC3)ccc21,0%,?,1%,1.3%,6%,-10%,3%,-6%
CC(=O)Nc1ccc(S(=O)(=O)Oc2cccc(N3C(=O)C4CC=CCC4C3=O)c2)cc1 (stereo not given),5%[3.69 µM],6%,-3%,-3.1%,12%[6.58 µM],?,2%,-3%
COc1ccc(CN(C)CC(=O)Nc2ccc(Cl)cc2C(F)(F)F)c(OC)c1,-14%,5%,-9%,-2.1%,4%,0%,-27%,-5%
COc1ccc(OC)c(NC(=O)C2COc3ccccc3O2)c1 (stereo not given),-29%,0%,16%,-4.9%,-8%,0%,17%,-71%
Cc1cc(C(=O)CCl)c(C)n1CCc1ccc(Cl)cc1,0%,·,?,·,-3%,22µM*,?,-51%
CCOCc1cc(=O)[nH]c(SC)n1,14%,·,·,·,4%,-2%,·,2%
Cc1cc2nccc(-c3ccco3)n2n1,-7%,-1%,-1%,-4.8%,12%,-4%,?,-9%
COc1ccc(-n2c(-c3ccc(Cl)cc3Cl)n[nH]c2=S)c(OC)c1,8%,·,-26%[46.1 µM],·,-1%,22%,15%[46.1 µM],-2%
Cc1c(NC(=O)C(C)OC(=O)c2cc3c4ccccc4n(C)c3s2)c(=O)n(-c2ccccc2)n1C (stereo not given),-9%,?,?,-8.1%,-5%,-23%,-8%,-1%
Cc1nnc2n(Cc3ccccc3)c(=O)c3c4c(sc3n12)CCCC4,·,-3%,·,4.6%,-1%,·,·,-2%
CC1=C(C(=O)Nc2ccc(C)cc2C)C(c2ccc(O)cc2)n2nnnc2N1 (stereo not given),·,-5%,?,-4.5%,·,-10%,-20%[46.1 µM],·
CCC(C)[C@H](N)c1cn([C@@H](Cc2cc3ccccc3[nH]2)C(=O)N2CCNCC2)nn1 (stereo not given in full),-18%,·,·,·,0%,-12%,·,-2%
Cc1cc(C)c(S(=O)(=O)N(C)CC(=O)NC2CCCC2)c(C)c1,-8%,13%,1%,4.0%,0%,·,-4%,-6%
Cc1ccc2oc(C(=O)Nc3ccc(S(=O)(=O)Nc4onc(C)c4C)cc3)cc(=O)c2c1,9%,13%,19%[46.1 µM],-10%,-3%,-11%&-13%,-22%&-22%[46.1 µM],-40%
Cc1ccc(-n2cc(-c3ccccc3)nc2S(=O)(=O)CC(=O)Nc2ccc(F)cc2)cc1,·,27%,-29%[46.1 µM],7.7%,·,32%[activator],?,·
Cn1c(SCC(=O)NCCc2ccccc2)nnc1-c1ccco1,-1%,-6%,10%,6.4%,5%,-6%,?,2%
CCCCC[C@H](O)/C=C/[C@@H]1[C@@H](C/C=C\CCCC(=O)OC)[C@@H](O)C[C@H]1O,-4%[18.4 µM],?,?,25µM*,2%,-19%,13%,-1%
O=C(NCc1ccccc1F)c1ccc(S(=O)(=O)NCc2ccco2)cc1,11%,·,?,·,-8%,7%,-12%[46.1 µM],·
COc1cc(Cn2c(C(=O)O)cc3sccc32)cc(OC)c1OC,-18%,1%,21%,6.7%,-7%,-1%,18%,5%
Cc1cccn2c(=O)c(/C=C(\C#N)S(=O)(=O)c3ccccc3)c(N3CCCCC3)nc12,17%,·,·,·,1%,-22%,·,5%
COc1cccc(N2CC(NC(=O)c3ccco3)CC2=O)c1 (stereo not given),·,1%,-24%[46.1 µM],1.5%,·,-11%,·,·
COC/C=C/C1=CC2=CC(=O)C(C)(OC(=O)c3cnc4ccccc4n3)C(=O)C2=CN1Cc1ccccc1 (stereo not given),-8%,·,·,·,0%,14µM*,19%[14.2 µM],?
CC1CCN(c2nc3c(c(=O)[nH]c(=O)n3C)n2CC(C)CSc2nnnn2-c2ccccc2)CC1 (stereo not given),-19%,-4%,?,-4.6%,-19%,-20%,?,13%
COc1cc(NS(=O)(=O)c2csc(C(N)=O)c2)cc(OC)c1,1%,·,15%[46.1 µM],·,3%,65%[activator],18%[46.1 µM],1%
Cc1nc2nc3c(c(=O)n2[nH]1)CCCC3,-5%,0%,-15%,0.8%,2%,-26%,-2%,2%
CC12CCC(=O)N1C(C(=O)Nc1cccc(F)c1)CS2 (stereo not given),11%,·,·,·,-2%,11%,·,14%
CCOC(=O)C(C#N)(Cc1ccc2ccccc2n1)Cc1ccc2ccccc2n1,20%,·,-20%[46.1 µM],·,·,-27%,?,·

(list continues)
SMILES,RE007 growth inh,Cruzain inh noDet,Lassa entry inh,Cruzain inh Det,SARS PLP yeast,2A StopGo,MARV entry inh,NS1 inh
O=c1[nH]c(CN2CCN(c3ccc(F)cc3)CC2)nc2ccccc12,3%,3%,1%,-3.5%,1%,?,1%,-2%
O=C(Nc1ccccc1Cl)C1CCN(S(=O)(=O)c2cccc3nonc23)CC1,1%,·,0%,·,3%,-22%,?,11%
C=C(C)C1Cc2c(C)nn(-c3cccc4ccccc34)c2C1 (stereo not given),-28%,-1%,-20%,-7.4%,-33%,?,?,-6%
CC(C)C1CC(c2csc(N)n2)CCO1 (stereo not given),0%,8%,1%,4.4%,-7%,-3%,2%,-10%
CC1CCC2(CC1)NC(CO)(CO)CO2 (stereo not given),0%,-9%,-6%,-0.1%,24%,-18%,-3%,2%
O=C(Nc1ccc(OC(=O)N2CCCCC2)cc1)N1CCOCC1,-15%,·,?,·,1%,?,?,-5%
FC(F)(F)c1cccc(-c2cc(C3CCNCC3)[nH]n2)c1,1%,·,?,·,3%,-14%,?,4%
O=C(Nc1cc(NC(=O)c2ccccc2F)ccc1Cl)c1ccccc1,28%,·,13%[46.1 µM],·,1%,-2%,?,-19%
COc1ccc(N(CC(=O)N2CCCCC2)S(=O)(=O)c2c(C)nn(C)c2C)cc1,0%,11%,·,-0.2%,-6%,-1%,·,-4%
